GIV Gai3 FP: inhibitors of GIV peptide binding to Galpha-i3, primary screen, biochemical, fluorescence polarization, FITC-GIV GBA peptide, rat Galphai3; Guanine nucleotide-binding protein G(i) subunit alpha-3 (Rattus norvegicus), P08753; 90 min; active compounds read low; scaled: aluminum fluoride 0%, vehicle 100%; percent of control (FP), % (no concentration beside the values); 210,000 compounds, 0.42% hits;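 active = replicate mean at 85% of control or lower, very high polarization wells dropped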;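 also: wells of about 15 µL received 100 nL stock; the first replicate is given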
Target sequence (P08753 whole entry, looked up): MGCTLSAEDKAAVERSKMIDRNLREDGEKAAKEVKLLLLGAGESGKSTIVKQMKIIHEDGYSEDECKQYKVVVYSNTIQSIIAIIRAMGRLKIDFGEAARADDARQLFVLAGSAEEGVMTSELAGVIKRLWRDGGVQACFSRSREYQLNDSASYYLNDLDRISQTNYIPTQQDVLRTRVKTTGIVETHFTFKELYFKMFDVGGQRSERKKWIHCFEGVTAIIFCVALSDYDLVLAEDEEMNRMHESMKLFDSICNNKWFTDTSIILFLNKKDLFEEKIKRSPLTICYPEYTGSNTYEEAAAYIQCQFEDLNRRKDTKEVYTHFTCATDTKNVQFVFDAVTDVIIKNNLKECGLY
Sa growth inh: S. aureus growth inhibition at 42 and 30 °C, primary screen, LtaS inhibitor project, RN4220, two temperatures | relative growth, % (concentration not given with the values) | OD600, 20 h, 42 °C; active compounds read low | AID 720641, 2013 | 170,000 compounds, 0.53% hits;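 active = growth at 42 °C up to 50% and 20 or more points under that at 30 °C, or under 10% at both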;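 also: 300 nL library stock went into each well; scaled to the means of positive and negative controls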
HCMV UL50-53 inh: inhibitors of HCMV UL50-UL53 interaction, biochemical, HTRF; AID 1918969, 2023; 190,000 compounds, 0.15% hits; HCMV UL50-UL53 nuclear egress complex (human cytomegalovirus); normalized percent inhibition; inhibition, % (test concentration not listed);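 active = both replicates at 50% or more, plus weaker picks with an unusually low signal ratio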;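 also: stock transfer was 100 nL into about 20 µL; 0% = negative control wells and 100% = wells with untagged competitor protein; inactives centre near -12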
Sa growth inh second temp: second read-out of Sa growth inh, no call of its own (marks repeat the call); relative growth, %; measured here: growth at 30 °C;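 optical density after 20 h as mean of two plates; 100% = untreated growth and lower means inhibition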
Numbers without * were called inactive; · = no result given; & = joins results of further samples.

smiles	GIV Gai3 FP	Sa growth inh	Sa growth inh second temp	HCMV UL50-53 inh
CN(C)CC(C)(O)c1ccc(Br)cc1 (configuration not stated)	·	107	96	1
CN(C)c1ccc(-c2ccc(N(C)C)cc2)cc1	101	90	90	-10
CN(Cc1ccccc1)CC(O)c1ccc2cc[nH]c2c1 (configuration not stated)	104	104	87	5
O=C(Cc1ccccc1)N1CCN(C2CCCCC2)CC1	·	110	90	-1
Fc1ccc(NC(=S)NC2CN3CCC2CC3)cc1 (configuration not stated)	·	89	91	3
O=C1C=CC(=O)C=C1	106	·	·	-4
Cn1c(=O)n(C)c2cc(CNCCc3ccccc3)ccc21	104	106	80	-7
NCC(CP(=O)(O)O)c1ccc(Cl)cc1 (configuration not stated)	107	·	·	7
Cc1cccc(N2CCNCC2)c1	106	96	93	24
CC(C)OP(=S)(OC(C)C)OC(C)C	99	110	90	1
Cc1ccc(C)n1C(Cc1cnc[nH]1)C(=O)O (configuration not stated)	102	112	95	-20
O=C(O)CP(=S)(c1ccccc1)c1ccccc1	103	115	90	·
C[C@@H](N)Cc1cnc[nH]1	99	·	·	-6&-6
O=C(CCc1nc(-c2ccccc2F)no1)N1CCC2(CC1)OCCO2	100	92	78	6
COc1ccc(NC(=O)C2c3ccccc3C(=O)N3CCCCC23)cc1OC (configuration not stated)	104	98	86	-26
c1ccc(C2CC3CC4(CCCC4)N2O3)cc1 (configuration not stated)	103	91	89	-22
Cc1cc(OCC(=O)NC2CC2)c2c3c(c(=O)oc2c1)CCC3	·	106	89	-7
O=C(NC1CCCC1)N(Cc1ccc2c(c1)OCO2)C1CCN(Cc2ccccc2)CC1	104	106	105	10
Cc1ccnc(-n2c(-c3ccccc3)nc3ccccc3c2=O)c1	103	85	82	-13
CCOC(=O)CSCCOc1ccc(C=C2C(=O)NC(=O)NC2=O)cc1OC	98	·	·	60*
COc1cc2c(cc1O)C(C)NCC2 (configuration not stated)	104	90	93	-20
Clc1ccc(COC(Cn2ccnc2)c2ccc(Cl)cc2Cl)cc1 (configuration not stated)	·	-0.6*	-0.4*	34&1&-15&15
CCOC(=O)c1c(CN2CCCCC2)n(Cc2ccccc2)c2cc(Br)c(O)cc12	109	·	·	22
COc1cc(CN2CC=C(c3ccc(F)cc3)CC2)cc2c1OCO2	105	105	99	-9
Cc1cccc(CSc2nc3c(cc2C#N)CN(C)CC3)c1	113	76	99	9
O=C(c1ccco1)c1cn(Cc2ccccc2)c2ccccc12	103	99	56	·
C=CCN1C[C@@H](C)N([C@H](c2ccc(C(=O)N(CC)CC)cc2)c2cccc(OC)c2)C[C@@H]1C	104	·	·	-13
CN(C)CC1(CC(=O)O)CCCCC1	106	107	105	22
Cn1c([O-])c([N+](C)(C)C)c(=O)n(C)c1=O	109	101	100	2
Oc1ccc2c3c1O[C@H]1c4[nH]c5ccccc5c4C[C@@]4(O)C(C2)N(CC2CC2)CCC314 (some centres not stated)	96	·	·	-3
c1cncc(C2N3CCCN2CC3)c1 (configuration not stated)	100	93	88	-10
N#CCCn1cc(C(=O)O)c(-c2ccc(Cl)cc2)n1	103	110	77	·
CN1CCC(O)(c2cccs2)C(C(=O)c2cccs2)C1 (configuration not stated)	105	69	103	-3
N#CCc1ccc(O)cc1	·	100	101	3
Cc1cccc(N2CCN(Cc3ccccc3F)CC2)c1C	103	106	89	19
COC(=O)C1SC2(C(F)(F)F)CC1(O)c1c(c(OC)c3occc3c1OC)O2 (configuration not stated)	97	96	94	·
CC1CC(O)(c2ccccc2)C(C)CN1C (configuration not stated)	104	97	89	17
N#C/C(=C\c1cnc[nH]1)S(=O)(=O)c1ccc(Cl)cc1	101	117	77	-18
CN1CCC2(CC1)N=C(c1ccccc1)C(=S)N2	98	86	85	-56
Cc1ccc2[nH]c(C)c(C(O)CN3CCCCC3)c2c1 (configuration not stated)	104	·	·	-25
N#CC1=C(N)Oc2c(c(=O)oc3ccccc23)C1C1CC=CCC1 (configuration not stated)	99	87	99	-36
CC(C)Sc1nnc(OC(=O)N(C)C)n1-c1ccccc1	98	63	88	2
COc1cc(C=C2C(=O)N(C)C(=O)N(C)C2=O)ccc1OS(=O)(=O)c1ccccc1	104	·	·	62*
CC(C)CC(NC(=O)C1CCCCC1)C(=O)N1CCC2(CC1)OCCO2 (configuration not stated)	100	94	91	6
Cc1ccc(C(O)CN)cn1 (configuration not stated)	·	112	94	-23
NCCCN1CCN(Cc2ccccc2)CC1	101	100	96	-2
CCOC(=O)c1c(CSc2ccccc2)n(Cc2ccccc2)c2cc(Br)c(O)c(CN(C)C)c12	108	·	·	-18
C#C[C@]1(O)CC[C@H]2[C@@H]3CCC4=CC(=O)CC[C@]4(C)[C@H]3CC[C@@]21C	105	86	82	-33&-24
COc1cccc(CNCCc2cccc(F)c2)c1	101	91	85	-8
O=C(N/N=C\C1C(=O)NC(=S)N(c2ccccc2)C1=O)c1ccc(O)cc1 (configuration not stated)	132	84	85	-54

Following part
smiles	GIV Gai3 FP	Sa growth inh	Sa growth inh second temp	HCMV UL50-53 inh
CCC(C)N1CCN(Cc2ccccc2)CC1 (configuration not stated)	98	122	89	-12
CC(=O)[C@H]1CCC2C3CC[C@H]4C[C@H](O)CC[C@]4(C)C3CC[C@@]21C (some centres not stated)	108	·	·	-19
CCOc1ccccc1C1SCC(=O)Nc2c1c(=O)[nH]n2C1CCCC1 (configuration not stated)	100	113	98	-12
CCOC(=O)c1c(C)n(Cc2ccccc2)c2ccc(OCC(O)CN3CCN(c4ccc(C)cc4)CC3)cc12 (configuration not stated)	107	·	·	4
CCc1cccc2c(/C=N/O)c[nH]c12	·	88	87	-16
Cc1ccccc1CN1CC2CC(C1)c1cccc(=O)n1C2 (configuration not stated)	109	100	75	-10
O=C(COc1cccc(Cl)c1)N1CCN(CCc2ccncc2)CC1	100	103	89	-4
Cc1oc(-c2ccccc2Cl)nc1CN1C(=O)CN=C(c2ccccc2)c2cc(Cl)ccc21	103	114	87	-26
COC(=O)c1ccccc1S(=O)(=O)NC(=O)N(C)c1nc(C)nc(OC)n1	·	92	95	-18
Cc1ccccc1CCN	·	95	99	-1
CC1c2cccn2-c2ccccc2CN1C(=O)Nc1cccc(Br)c1 (configuration not stated)	105	·	·	1
CCC(C)n1[nH]c(=O)c2c1NC(=O)CSC2c1ccc(Br)cc1 (configuration not stated)	97	·	·	-6
COc1ccc(CC2C(=O)NC(=O)N(c3cccc(Cl)c3)C2=O)cc1 (configuration not stated)	·	93	104	6
COc1ccn(C)c(=O)c1C#N	·	83	91	-16&-24
COc1ccccc1N1CCN(Cc2ccc(C)cc2)CC1	109	113	94	-2
COC1=CC23CCN(C)C(Cc4ccc(OC)c(O)c42)C3=CC1=O (configuration not stated)	105	79	90	-17
Cc1ccc(CN2C(=O)CN=C(c3ccccc3)c3ccccc32)cc1	99	113	100	2
O=c1cc(CCl)nc2nc[nH]n12	96	94	82	0
O=C1NC(=O)N(CCC2=CCCCC2)C(=O)/C1=C/c1cnc(-c2ccccc2)nc1	107	125	94	-26
Cc1cc(O)c(C(=O)Nc2ccc(Cl)c(Cl)c2)c(=O)n1CC1CCCO1 (configuration not stated)	104	95	90	-24
c1cc(CN2CCNCC2)cs1	·	79	90	-21
CC(O)CNC1CCC2CCCCC2C1 (configuration not stated)	·	100	91	-3
Cc1cc(Br)c(O)c(Br)c1	·	111	100	-5
O=C(Cc1ccccc1)N1CCN(Cc2c[nH]c3ccccc23)CC1	102	·	·	-11
CC(=O)N1CCN(CC(=O)Nc2ccc(C#N)c(Cl)c2)CC1	·	94	92	-18
Cc1ccccc1-c1nc2ccccc2c(=O)n1C	100	102	97	-6
CCC(C)n1[nH]c(=O)c2c1NC(=O)CSC2c1ccc2c(c1)OCO2 (configuration not stated)	103	·	·	-4
CN1C(=O)N(C)C(=O)C(CCc2ccncc2)(CCc2ccncc2)C1=O	98	92	87	-19
Cc1cc(C(=O)N2CCC3(CC2)OCCO3)no1	100	96	90	-15
COc1ccc(C(c2c(O)c3ccccc3oc2=O)c2c(C)n(C)n(-c3ccccc3)c2=O)cc1 (configuration not stated)	107	104	81	-6
COc1ccc(C2N3CCCN23)cc1 (configuration not stated)	105	105	101	2
O=C(COc1ccc(Br)cc1)N1CCN(CCc2ccccn2)CC1	99	·	·	-5
O=c1oc(-c2ccc(F)cc2)nc2ccccc12	99	120	91	-19
O=c1cccc2n1CC1CC2CN(CC(O)COc2ccccc2)C1 (configuration not stated)	102	111	90	-19
COc1ccc2c(c1)c(C(=O)O)c(C)n2C(C)C	103	91	87	-27
Cc1cc(C)nc(NC2=NCCN2)n1	105	103	83	·
Cc1ccccc1OCCCn1cc(C(=O)C(C)(C)C)c2ccccc21	100	93	104	·
NS(=O)(=O)c1ccc(-c2ccc(C=C3C(=O)NC(=S)NC3=O)o2)cc1	139	120	47	-57&-28
CCOC(=O)c1c(C)n(Cc2ccccc2)c2ccc(OC(=O)c3cccc(Br)c3)cc12	100	·	·	-19
CCn1c2ccccc2c2cc(CN3CCN(C)CC3)ccc21	97	95	99	-1
O=C(Cc1ccccc1)N1CCN(C2CCCC2)CC1	99	81	96	0
CCCC1=Nc2cc(C(=O)NC3CCC(C)CC3)ccc2Sc2ccccc21 (configuration not stated)	104	112	94	-16
O=C(Nc1ccc(Br)cc1C(=O)c1ccccc1)c1ccccc1	106	97	85	-33
CN(C)C1(c2nnnn2CCOC(=O)Nc2ccc(Cl)cc2)CCCCC1	105	98	78	·
Cc1ccc(-n2c(/C=C/c3ccccc3)nc3ccccc3c2=O)cc1C	102	109	91	·
Cn1c(C(=O)O)c(CC(=O)N2CCN(Cc3ccccc3)CC2)c2ccccc21	100	95	86	-22
Cc1cc(C)nc(N2Cc3ccccc3C2=N)n1	·	105	82	-24
Cc1ccc(C=C(C#N)C#N)o1	104	74	50	-65
CN(C)CCN(C)C	·	98	95	1
CN1CCC(N2CCCCC2)CC1	109	98	111	-1

Additional records follow:
smiles	GIV Gai3 FP	Sa growth inh	Sa growth inh second temp	HCMV UL50-53 inh
Cc1cccc(C)c1NC1=NCCCS1	101&104	93&93	91&91	-28&-30&-22&-28&-13
NCCC(=O)OCC1CCCN2CCCCC12 (configuration not stated)	·	96	92	-2
O=C1C=CC[C@H]2[C@@H]3CCCN4CCC[C@H](CN12)[C@H]34	101	86	84	-14
c1ccc(C2N3CCCN2CC3)cc1 (configuration not stated)	101	106	95	·
COc1cccc(Oc2coc3cc(OC(=O)N(C)C)ccc3c2=O)c1	97	99	87	·
CCOC(=O)c1c(C)n(C(C)C)c2ccc(OC(=O)c3ccco3)cc12	100	85	78	-32
CCC(=Nc1ccccc1N)c1c(O)[nH]c(=O)[nH]c1=O	·	105	92	-4
CC1CCCN(CC(=O)c2ccccc2F)C1 (configuration not stated)	·	99	98	4
O=C1NC(=O)N(CCc2ccc(F)cc2)C(=O)/C1=C\c1ccc(O)c(O)c1	139	120	99	3
CC(=O)OC1CCC2C3CCC4CCCC(=O)C4(C)C3CCC12C (configuration not stated)	102	103	94	-11

Entries above that contain an aryl thioether with sulfur outside any ring, in the order listed:
smiles	GIV Gai3 FP	Sa growth inh	Sa growth inh second temp	HCMV UL50-53 inh
Cc1cccc(CSc2nc3c(cc2C#N)CN(C)CC3)c1	113	76	99	9
CC(C)Sc1nnc(OC(=O)N(C)C)n1-c1ccccc1	98	63	88	2
CCOC(=O)c1c(CSc2ccccc2)n(Cc2ccccc2)c2cc(Br)c(O)c(CN(C)C)c12	108	·	·	-18

Continued:
smiles	GIV Gai3 FP	Sa growth inh	Sa growth inh second temp	HCMV UL50-53 inh
CCN(CC)S(=O)(=O)c1ccc(Cl)c(C(=O)Oc2cccc3cccnc23)c1	110	·	·	-11
CN1CCc2nc3sc4c(=O)[nH]c(=O)[nH]c4c3cc2C1	101	92	87	-44
CCNc1nc(NC(C)C)nc(SC)n1	97	107	100	-1
O=C1NC(=O)C(O)(c2c(O)c3ccccc3n(Cc3ccccc3)c2=O)C(=O)N1	102	86	83	-5
O=[N+]([O-])/C=C/c1ccc2c(c1)OCO2	103	·	·	-14&-24
COC(=O)CN1C(=O)C2(C(C(=O)OC)=C(N)Oc3ccccc32)C2=C1CCCC2=O (configuration not stated)	100	94	90	-18
S=C=Nc1ccccn1	·	80	92	5

3 compounds out of the list, sorted by molar mass, ascending:
smiles	GIV Gai3 FP	Sa growth inh	Sa growth inh second temp	HCMV UL50-53 inh
S=C=Nc1ccccn1	·	80	92	5
COC(=O)CN1C(=O)C2(C(C(=O)OC)=C(N)Oc3ccccc32)C2=C1CCCC2=O (configuration not stated)	100	94	90	-18
CCN(CC)S(=O)(=O)c1ccc(Cl)c(C(=O)Oc2cccc3cccnc23)c1	110	·	·	-11

Some of the compounds tested. The share of hits here may be higher or lower than overall.
